ClpP mod: qHTS Assay for Activators of ClpP; Potency, µM (titrated, usually from 57.5 µM), inactives show at the highest dose activity change, negative = active; purified B. subtilis ClpP, FRET peptide cleavage, 20 min; hit rate 1.9% among 340,000; active = well fitted falling curve with a large enough effect; inconclusive = small, poorly fitted or top-dose-only effect; inactive = no such curve, though single readings can be large or run the other way; also: potency is read from the fitted curve at half-maximal effect; the source files actives as falling curves though it sought activators and does not explain the sign; nearly all actives have a fitted effect of over 65% in size; many hits overshoot -100%
Target sequence (P80244 whole entry, looked up): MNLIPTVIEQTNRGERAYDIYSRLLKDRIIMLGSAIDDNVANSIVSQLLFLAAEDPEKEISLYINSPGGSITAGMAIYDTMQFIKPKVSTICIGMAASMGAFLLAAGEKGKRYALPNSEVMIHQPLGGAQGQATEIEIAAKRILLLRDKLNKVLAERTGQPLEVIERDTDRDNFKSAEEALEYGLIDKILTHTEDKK
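Purified B. subtilis ClpP, 10 microg/mL final in Tris/HCl pH8 with KCl, BSA, glycerol and Tween-20, cleaved an Abz/nitrotyrosine-quenched decapeptide. Fluorescence (ex 320, em 430) was read at 0 and 20 min at room temperature. Delta was normalized to 5.8 microM ADEP and DMSO/no-enzyme controls.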
Sfp inh: inhibitors of Bacillus subtilis Sfp phosphopantetheinyl transferase; Potency, µM, without a hit: max response, negative = inhibition, usual class: inhibitors; Biochemical Sfp PPTase activity, qHTS; Q9F4F7; hit rate 3.5% among 310,000; active = well fitted inhibition curve with a large enough effect; inconclusive = small, poorly fitted or top-dose-only effect, or another doubt; inactive = no such curve, though single readings can be large or run the other way;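 also: the enzyme is Sfp with the accession as filed and its product quenches rhodamine fluorescence; potency is read from the fitted curve at half-maximal effect; 0% = enzyme reaction without inhibitor and -100% = no enzyme wells; top concentration of the series not given in the record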
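Fluorescence-quenching assay with 15 nM Sfp, 5 uM rhodamine-CoA and 12.5 uM BHQ-2-labelled ybbR peptide in pH 7.6 Hepes/MgCl2 buffer. Enzyme was pre-incubated with compound for 15 min at room temperature. Rate was taken from the 30-min fluorescence change (525/598 nm).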
TRPV1 potentiator: human TRPV1 potentiation. potentiation, % at 8.33 µM. Q8NER1. TRPV1-expressing cells, Fluo-8 calcium influx, capsaicin EC20 potentiation; host cell line not named in the record; control for the full effect not named in the record. hit rate 0.02% among 320,000; active means potentiation above 80%; inconclusive means 30% to 80%; inactive means below 30%; also: 0% is about no effect
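Cells expressing TRPV1 were dye-loaded with Fluo-8 and read kinetically: 10 s baseline, 3 min after compound (agonist portion), then 2 min after EC20 capsaicin (allosteric enhancer portion). Calcium-bound dye fluorescence at 480/520 nm.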
TRPML1 blocker: blocks the human TRPML1 channel; Q9GZU1; TRPML1-inducible cells, Ca2+ dye fluorescence, FDSS; active compounds read low; inhibition of EC80 agonist-evoked calcium signal; activity change, negative = inhibition, % (no concentration beside the values); hit rate 0.02% among 390,000; in the data active means activity change below about -50%; inconclusive means about -30% to -50%; inactive means above about -30%;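 also: stimulus is agonist 54-4 at its EC80 concentration; % is scaled to controls: 0 for no effect and ±100 for the full control effect; compound concentration not given in the record; the text of the record puts the active cut at -80%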
Target sequence (Q9GZU1 whole entry, looked up): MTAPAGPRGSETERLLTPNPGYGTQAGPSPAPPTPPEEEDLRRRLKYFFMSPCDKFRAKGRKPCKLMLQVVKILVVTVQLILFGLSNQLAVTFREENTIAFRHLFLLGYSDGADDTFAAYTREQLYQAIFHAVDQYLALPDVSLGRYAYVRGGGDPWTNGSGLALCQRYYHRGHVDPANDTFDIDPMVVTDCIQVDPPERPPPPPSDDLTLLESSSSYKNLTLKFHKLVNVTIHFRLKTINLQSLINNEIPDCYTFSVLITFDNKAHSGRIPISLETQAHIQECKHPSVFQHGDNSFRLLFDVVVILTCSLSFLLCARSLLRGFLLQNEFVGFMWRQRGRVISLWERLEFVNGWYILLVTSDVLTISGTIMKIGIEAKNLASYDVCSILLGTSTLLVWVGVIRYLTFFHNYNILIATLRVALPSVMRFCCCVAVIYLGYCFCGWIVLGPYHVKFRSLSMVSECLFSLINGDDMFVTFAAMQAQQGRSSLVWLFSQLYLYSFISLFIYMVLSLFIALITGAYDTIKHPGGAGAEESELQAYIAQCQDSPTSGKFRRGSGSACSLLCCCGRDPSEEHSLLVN
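TRPML1-DL cells, Tet-induced overnight (~16 h, 37 °C) at 1,500 cells/well, were loaded with Ca8 no-wash dye plus quencher for 45-90 min at room temperature. Compounds were pinned during FDSS kinetic reading; agonist 54-4 at EC80 (4 uM final) then added.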
PINK1 expr mod: PINK1 expression modulation. PINK1 immunofluorescence, high-content cytometry, 24 h. Potency, µM (doses to about 76.6 µM), for the others: top-dose activation (PINK1 increase), usual class: activators. hit rate 0.2% among 410,000. AID 624263; active = well fitted activation curve with a large enough effect; inconclusive = small, poorly fitted or top-dose-only effect; inactive = flat fitted curve, though single readings scatter; cell line not stated here;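 also: potency is read from the fitted curve at half-maximal effect; % of control where 0% means no effect; nearly all actives have a fitted effect of over 65% in size; a mitochondrial uncoupler was the plate control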
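Fluorescence from anti-PINK1 antibody, together with nuclear and cell stains, was scanned on a laser-scanning cytometer. Before staining, stable-line cells were incubated 24 hours with compounds at 5 concentrations; primary antibody 12 h at 10 degrees C.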
TRPML1 ag: human mucolipin-1 channel agonism | Q9GZU1 | TRPML1-expressing cells, Ca2+ dye fluorescence, FDSS; host cell line not named in the record; reference of the full effect not given here | activation, % (concentration not given with the values) | hit rate 0.12% among 410,000 | AID 624414; in the data active = activation above about 50%; inconclusive = about 30% to 50%; inactive = below about 30%; also: 0% is about no effect; the text of the record puts the active cut at 80%
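Cells: TRPML1-DL, 1X Tet inducer, ~16 h at 37 degrees C/5% CO2. Dye: ABD Ca8 no-wash + quencher, 45-90 min RT. Read: 10 s baseline, compound add, 110 s agonist phase; 54-4 EC80 (4uM final), 110 s antagonist phase.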
Menin-MLL FL inh: menin-MLL binding inhibition, fluorescein peptide; Fluorescence polarization, fluorescein-MLL peptide displacement from menin; FP activity change, % at 61.4 µM; 290,000 tested, under 10 active; AID 1766; inconclusive = falling polarisation curve, or a change in total fluorescence; inactive = total fluorescence flat and polarisation flat or rising; no compound was filed as active; the % refers to the polarisation; negative = inhibition;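 also: % of control where 0% means no effect; inhibitors lower the polarisation; unlabelled MLL peptide was the positive control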
Active calls of the source: *; ? = inconclusive; / = no result given; & = joins results of further samples; [ ] = remark or other dose.

SMILES | ClpP mod | Sfp inh | TRPV1 potentiator | TRPML1 blocker | PINK1 expr mod | TRPML1 ag | Menin-MLL FL inh
Cc1ccc(S(=O)(=O)NNC(=O)c2c(O)c3ccccc3[nH]c2=O)cc1 | -0.2% | 1% | 12 | 19 | 12% | 2.0 | 1.3
O=C(NCCc1nc2ccccc2[nH]1)c1cc([N+](=O)[O-])cc([N+](=O)[O-])c1 | 0.9% | ? | 0 | -10 | 2.4% | 0.6 | 8.6
COc1cccc(-c2cc3nc(NCCN4CCCC4)n(C)c(=O)c3s2)c1 | ? | / | / | / | 0.8% | -0.1 | /
C1=C(CCNc2nnnn2-c2ccccc2)CCCC1 | -2.3% | 12% | -20 | 6 | -0.4% | 0.2 | -0.4
O=C(CCNc1ccc(Br)cc1)c1cccc([N+](=O)[O-])c1 | 1.0% | 5% | -17 | -5 | 0.1% | -0.8 | 1.9
Cn1c(=O)c2c(nc(-n3ccnc3)n2Cc2ccc([N+](=O)[O-])cc2)n(C)c1=O | -1.1% | 15% | -4 | 21 | -0.6% | -0.1 | 0.0
O=c1nc2ccccc2c2n1CC(CN1CCN(Cc3ccccc3)CC1)N2 (centres undefined) | 16µM* | 9% | 5 | -8 | -1.5% | -0.4 | 3.0
COC(=O)COc1ccc2c(-c3cccc([N+](=O)[O-])c3)cc(=O)oc2c1 | -2.2% | ? | -5 | -9 | 2.9% | -1.0 | 1.3
CCc1cccc(C)c1NC(=O)c1ccc2nc(N3CCOCC3)sc2c1 | 1.8% | 5% | -5 | -13 | 1.3% | -0.1 | -2.9
CCOC(=O)C1CCCN(CCC(=O)Nc2ccc3c(c2)CCC3)C1 (centres undefined) | -0.4% | 2% | -3 | 9 | -4.6%[38.3 µM] | 0.4 | 6.4
Cc1ccc2c(N)c(C)ccc2c1 | ? | 10% | -2 | 42 | 16% | 1.1 | 4.6
CC(C)(C)OC(=O)N1CCC(c2c(C(=O)N3CCC(c4ccccc4)C3)cnn2-c2cccc(Cl)c2)CC1 (centres undefined) | 1.5% | / | / | -10 | 0.1% | 57* | /
COc1cccc(C(=O)NNC(=O)Cc2ccc(Cl)cc2)c1 | -0.3% | 19% | -11 | -7 | -0.5% | 0.4 | 6.0
Nc1nnc(/C=C/c2ccccc2Cl)s1 | / | -24% | / | 8 | -1.2% | 4.8 | 2.0
O=C(COC(=O)c1ccc(Br)o1)Nc1ncc(Cl)cc1Cl | / | -6% | 24 | -15 | 1.3% | 0.5 | -1.5
COc1ccc(S(=O)(=O)N2CCCCC2)cc1NC(=O)Cc1ccc(Br)cc1 | 2.8% | / | / | -2 | 7.2% | 0.4 | /
CCCc1nnc(NC(=O)COC(=O)c2cc(C)nc3ccccc23)s1 | -0.3% | 10% | 13 | 8 | / | 1.2 | -0.5
CC(C)(CO)CN1CCC(n2nccc2NC(=O)C2CCOC2)CC1 (centres undefined) | 3.2% | / | / | -7 | -0.5% | -0.6 | /
COc1cc(OC)cc(C(=O)OCC(=O)Nc2nnc(-c3ccccc3)o2)c1 | / | / | / | 7 | 5.0% | 0.6 | /
O=C(Cn1nnc(-c2ccccc2F)n1)Nc1ccc2c(c1)OCCO2 | / | 1% | -1 | -3 | -2.5% | -0.4 | -3.9
Cc1cc(C)n2nc(N)c(N=Nc3ccc(Cl)cc3)c2n1 | 1.1% | 11% | 13 | -3 | ? | 0.7 | 0.7
CCOc1ccc(N(CC(=O)Nc2cccc(N(C)S(C)(=O)=O)c2)S(=O)(=O)c2ccccc2)cc1 | -0.1% | 26% | 2 | -7 | 13% | 1.2 | 3.8
CN(C(=O)COC(=O)c1cc([N+](=O)[O-])ccc1Cl)c1ccccc1 | -0.9% | 19% | -2 | 0 | 2.9% | -1.4 | /
COc1ccc(/C=C(\C#N)C(=O)NC2CCS(=O)(=O)C2)cc1OC (centres undefined) | -1.7% | 33%[activator] | -5 | 37 | 1.9% | 0.3 | 5.3
O=C(CSc1ncccc1-c1nc2ccccc2[nH]1)N1CCCCC1 | ? | 1% | 1 | 2 | 1.8%[38.3 µM] | 2.2 | 0.5
CN1CCN(CC(O)COc2ccc(C34CC5CC(CC(C5)C3)C4)cc2)CC1 (centres undefined) | / | ? | -15 | 3 | -2.3% | 1.3 | -1.9
COc1cccc(OC)c1C(=O)NN1CCCCC1 | -0.4% | 16% | 0 | -8 | ? | 0.4 | -1.9
O=[N+]([O-])c1ccc(Nc2ccc(F)cc2)cc1 | 0.0% | 9% | -3 | 6 | -0.1% | 2.0 | 1.5
Cc1ccc(/C=N/NC(=O)CNC(=O)c2ccc(S(=O)(=O)N3CCCC3)cc2)o1 | -0.4% | 2% | 6 | 9 | -0.5% | -0.1 | 0.9
COc1ccccc1NC(=O)N1CCC(C(=O)c2ccc(F)cc2)CC1 | 1.5% | 8% | -28 | 17 | -6.8%[38.3 µM] | 0.1 | -0.3
NC(=O)N/N=C1\CCS(=O)(=O)c2ccc(F)cc21 | 12% | 8% | 25 | -1 | -0.2% | -0.1 | -7.4
CCOc1ccc(C(C)NC(=S)NC2CCCCC2)cc1 (centres undefined) | -4.9% | 7% | 8 | -7 | ? | 2.0 | -8.3
COc1ccc(OC(C)C(=O)N(C)Cc2nc(-c3ccc(C)cc3)no2)cc1 (centres undefined) | / | 13% | 24 | -18 | 0.8% | -0.2 | 3.3
Cc1ccc(C)n1-c1sc2c(c1C(=O)O)CCCC2 | / | -17% | 6 | 12 | -0.9% | -0.2 | 6.3
Cc1ccc(S(=O)(=O)N2[C@@H](c3cccc(Cl)c3)C(C(=O)O)=CC[C@H]2c2cccc(Cl)c2)cc1 | -2.2% | / | 14 | 25 | 0.1% | -0.8 | /
Cc1ccc(/C=C/C(=O)NCCCN2CCN(CCCNC(=O)/C=C/c3ccc(C)cc3)CC2)cc1 | -1.0% | 4% | 0 | 8 | 15% | 0.0 | 1.6

The list goes on; the last three above are carried over.
SMILES | ClpP mod | Sfp inh | TRPV1 potentiator | TRPML1 blocker | PINK1 expr mod | TRPML1 ag | Menin-MLL FL inh
Cc1ccc(C)n1-c1sc2c(c1C(=O)O)CCCC2 | / | -17% | 6 | 12 | -0.9% | -0.2 | 6.3
Cc1ccc(S(=O)(=O)N2[C@@H](c3cccc(Cl)c3)C(C(=O)O)=CC[C@H]2c2cccc(Cl)c2)cc1 | -2.2% | / | 14 | 25 | 0.1% | -0.8 | /
Cc1ccc(/C=C/C(=O)NCCCN2CCN(CCCNC(=O)/C=C/c3ccc(C)cc3)CC2)cc1 | -1.0% | 4% | 0 | 8 | 15% | 0.0 | 1.6
COc1ccc(Nc2nc(N)nc(COc3ccc(OC)cc3)n2)cc1 | 8.1% | 0% | 13 | 2 | 3.2% | -1.1 | 3.0
C[n+]1cccc(CNC(=O)/C=N/O)c1 | -2.3% | -2% | / | -12 | -0.5% | 1.4 | -0.7
CCn1cc(C(=O)N2CCN(c3ccccc3OC)CC2)c2cc(OC)c(OC)cc2c1=O | -2.8%&-7.9% | 12% | -3 | 11&-10 | 2.0%&2.6% | -0.6&0.2 | -2.3
COc1ccc(CN(C)C(=O)C23CC4CC(CC(C4)C2)C3)c(OC)c1 | / | -1% | -11 | -18 | 0.8% | 3.8 | 3.0
CN(C)c1cc(C(F)(F)F)nc(-c2ccccn2)n1 | -12% | -2% | -12 | -8 | 2.3%[38.3 µM] | -0.1 | 0.8
CNS(=O)(=O)c1ccc2nc(NC(=O)c3ccc(N4C(=O)CCC4=O)cc3)sc2c1 | 5.8% | 14µM* | 0 | 10 | -1.6% | 0.3 | -0.2
CCOC(=O)[C@]12CCC=C1N(Cc1cccc3ccccc13)C(=O)[C@H](CC(=O)NCc1cccc(C(F)(F)F)c1)C2 | -21% | / | / | / | -0.9% | 0.7 | /
Cc1ccc(S(=O)(=O)N(C)C[C@@H]2OCCCC[C@@H](C)Oc3ccc(NS(=O)(=O)c4c(C)noc4C)cc3C(=O)N([C@H](C)CO)C[C@@H]2C)cc1 | -1.5% | / | / | 20 | 0.6% | 0.3 | /
COc1ccc(CCn2nnnc2C(c2ccccc2)N2CCN(C)CC2)cc1OC (centres undefined) | 0.6% | 9% | -5 | -12 | -1.1% | -0.2 | 1.7
Cc1cccc(C)c1NC(=O)CN(C)C(=O)CSC(=S)N1CCCC1 | 1.1% | / | -3 | 7 | 2.5% | -0.1 | /
O=C(c1ccc(F)cc1F)C1CCN(c2ccc([N+](=O)[O-])cn2)CC1 | / | -1% | -12 | 48 | 3.7% | 2.8 | 4.8
CCCCOc1ccc(C2(C(=O)O)CCCC2)cc1 | -4.2% | 13% | 3 | 8 | -1.3% | -0.5 | 2.8
c1ccc(SCc2nc(-c3ccncc3)no2)cc1 | -6.1% | -19% | -5 | -8 | / | 0.6 | 1.9
C/C(=N\O)C(C)(C)Nc1ccccc1F | 0.8% | 9% | 5 | 5 | -0.6% | -0.6 | 3.1
CCc1nc(N2CCCCC2)c2oc3ccccc3c2n1 | -17% | -22% | -24 | -10 | 6.4%[38.3 µM] | 4.5 | -0.6
COCCOC(=O)c1[nH]c2c(c1C)C(=O)C(C(=O)OC)C(C)C2 (centres undefined) | -6.2% | -13% | -1 | -20 | -2.7% | 1.1 | -3.2
Clc1ccc(OCc2nc(-c3ccccn3)n[nH]2)cc1 | -1.8% | 2% | 0 | 3 | ? | -1.0 | -1.1
COc1ccc(CCNC(=O)Cc2ccccc2)cc1OC | / | 6% | -6 | -11 | 0.4% | 0.6 | -5.9
O=C(O)CCC(=O)N1CCc2cc(S(=O)(=O)N(CCc3ccccc3)Cc3ccccc3)ccc21 | 0.2% | 5% | 8 | 12 | / | 0.3 | 2.3
S=C(Nc1ccc2nc(-c3ccccn3)c(-c3ccccn3)nc2c1)N1CCOCC1 | / | ? | 7 | 12 | 3.1% | 2.8 | ?
CCO[C@H]1OC(C(=O)NCc2ccccc2)=C[C@@H](c2cn(C(C)=O)c3ccccc23)[C@@H]1CCCO | 1.9% | 9% | 18 | -2 | 0.1% | 2.4 | -2.0

Assay outcomes: PubChem BioAssay, National Center for Advancing Translational Sciences (NCATS)
